Rango release inh: inhibitors of RanGTP-induced Rango-importin beta complex dissociation; O95149+P62826; Biochemical FRET Rango-importin beta, RanGTP-induced dissociation; Potency, µM (highest dose often 46.1 µM), for inactives: top-dose activity change, negative = inhibition; 0.071% of 340,000 active; AID 540253; active means falling FRET ratio curve, often poorly fitted, with flat reads before Ran was added; inconclusive means other falling curves, or compound fluorescence or quenching; inactive means flat or rising ratio curve;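 also: potency is read from the fitted curve at half-maximal effect; % of control where 0% means no effect; nearly all actives have a fitted effect of over 45% in size; -100% = wells without RanGTP and RCC1; the record marks most hits as doubtful in a second field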
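FRET read at 45 min, room temperature: inhibitors block the CFP/YFP signal rise when RanGTP (0.6 uM Ran, 2 mM GTP, 0.2 uM RCC1) frees Rango (0.1 uM) from importin beta (0.25 uM). Pre-read after 5 min compound exposure flags interference.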
miR-21 FLuc: raises the signal of a miR-21 reporter; HeLa miR-21 FLuc reporter, luciferase, 48 h; Potency, µM (highest dose often 38.3 µM), for the others: at the highest dose reporter change, positive = more light; 340,000 tested, under 10 active; AID 2288; active = well fitted rising curve with a large enough effect; inconclusive = small, poorly fitted or top-dose-only effect; inactive = no such curve, though single readings can be large or run the other way;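 also: % of control where 0% means no effect; miR-21 action dims this reporter so a rising signal means less miR-21 action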
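Luminescence from a firefly luciferase reporter carrying a miR-21 binding site downstream, stably expressed under a CMV promoter in HeLa cells that make miR-21 endogenously, reports miRNA modulation after 48 h compound exposure up to approximately 40uM final.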
Rango complex inh: Rango-importin beta binding inhibition. Rango CFP/YFP FRET sensor + importin beta, 45 min. Potency, µM (series often up to 92.2 µM), for the others: top-dose inhibition of complex formation. 0.031% of 340,000 active. AID 540263; active = rising FRET ratio curve, often small or poorly fitted; inconclusive = mostly compound fluorescence or quenching in the first reads; inactive = flat curves in all reads;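 also: potency is read from the fitted curve at half-maximal effect; 0% = DMSO wells and 100% = buffer wells lacking importin beta; nearly all actives have a fitted effect of over 15% in size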
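Inhibition scored from the CFP 486 nm/YFP 530 nm FRET ratio 45 min after adding 0.125 microM importin beta to 50 nM Rango biosensor preincubated 5 min with compound (room temperature, PBS with DTT, Tween-20, BSA). No-importin wells as positive control.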
GLA inh pH 4.5: blocks human alpha-galactosidase A at pH 4.5; purified enzyme, 4-MU-alpha-Gal fluorescence, pH 4.5; activity change, negative = inhibition, % at 105 µM; 230,000 tested, under 10 active; inconclusive = small, poorly fitted or top-dose-only inhibition, or a rising curve; inactive = flat fitted curve, though single readings scatter; no compound was filed as active;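 also: 0% = full activity with enzyme and -100% = basal without enzyme; dose as in the result columns while the protocol names 77 µM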
Target sequence (P06280 whole entry, looked up): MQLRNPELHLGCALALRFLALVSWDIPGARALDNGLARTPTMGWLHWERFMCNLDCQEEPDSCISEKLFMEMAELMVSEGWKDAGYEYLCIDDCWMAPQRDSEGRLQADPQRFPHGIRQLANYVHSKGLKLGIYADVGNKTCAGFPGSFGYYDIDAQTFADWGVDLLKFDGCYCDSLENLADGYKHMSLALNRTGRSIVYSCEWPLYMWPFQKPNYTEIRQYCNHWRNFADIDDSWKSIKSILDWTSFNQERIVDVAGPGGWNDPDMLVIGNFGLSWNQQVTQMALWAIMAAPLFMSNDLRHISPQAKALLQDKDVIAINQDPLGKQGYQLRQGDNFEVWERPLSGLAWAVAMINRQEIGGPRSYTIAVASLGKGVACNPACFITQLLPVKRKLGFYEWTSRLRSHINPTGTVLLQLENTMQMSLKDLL
* = called active by the depositor; u = inconclusive; x = not tested or not shown; & = joins results of further samples; [ ] = dose if it differs, or a comment. An excerpt (hit frequency here may not be typical).

The line under a structure holds: Rango release inh | miR-21 FLuc | Rango complex inh | GLA inh pH 4.5
CN1CCN(CC2(O)CCN(S(=O)(=O)c3ccc(Cl)cc3)CC2)CC1
 : 20% | -1% | 1.0% | 0
O=C(N/C(=C/c1cccs1)C(=O)N1CCCC1)c1ccccc1
 : 2% | -2% | 4.6% | x
O=C1C2CCCN2C(c2ccco2)N1c1ccc(F)cc1 (stereo not drawn)
 : -2% | -1% | 0.2% | -5
CCc1nnc(NC(=O)CSc2nc3c(C)cccc3[nH]2)s1
 : -15% | -12% | -1.2% | -3
Cc1cccn2cc(CNc3ccccc3)nc12
 : -15% | -46% | -3.7% | 3
COc1ccc(C(=O)OCCNC(=O)c2ccncc2)cc1OC
 : -9% | -8% | 2.0% | 4
COc1ccccc1-c1noc(-c2ccccc2C(=O)N2CCOCC2)n1
 : 0% | -18% | 1.8% | 8
NS(=O)(=O)c1ccc(CNC(=O)c2csc3c2CCCC3)cc1
 : -15% | -26% | -2.7% | -1
CCNc1nc(NC(C)C)nc(SCCOc2ccc(C)cc2)n1
 : -1% | -3% | 1.9% | 0
O=C(Nc1ccc(-c2cn3c(n2)SCC3)cc1)c1ccc2c(c1)OCO2
 : 6% | -7% | -1.1% | -3
Cn1c(C(C#N)C2=C(Cl)C(=O)N(c3ccccc3)C2=O)nc2ccccc21 (stereo not drawn)
 : x | -2% | x | -11
COc1nc(NCC(C)C)nc(Oc2ccc(=O)n(-c3ccccc3)n2)n1
 : -24% | -11% | -2.2% | 0
Cc1nn(CC(=O)Nc2ccc(C(=O)N3CCCC3)cc2)c(=O)c2ccccc12
 : -2% | -5% | -2.7% | -3
O=C(CCN1C(=O)/C(=C/c2ccccc2F)SC1=S)NCCCn1ccnc1
 : 7% | 0% | 0.2% | x
COc1ccc(NC(=O)c2cnc3ccccn3c2=O)c(OC)c1
 : 19% | x | -0.8% | x
COCC(=O)N1CCC(Oc2ccc(C(=O)NC(C)c3csc(C)n3)cc2)CC1 (stereo not drawn)
 : -2% | -1% | 0.0% | x
CCOC(=O)C(NC(C)=O)(Nc1ccc(S(N)(=O)=O)cc1)C(F)(F)F (stereo not drawn)
 : 0% | -4% | -4.0% | 6
Cc1ccc(C)c(NC(=S)N2CCC(c3nc4ccccc4s3)CC2)c1
 : 1% | -6% | 0.9% | 2
Cc1cc(C)cc(N(CC(=O)NC2CCC(C)CC2)S(=O)(=O)c2c(C)[nH]c(=O)[nH]c2=O)c1 (stereo not drawn)
 : 6% | 1% | -0.1% | -10
COc1cc(C(O)P(=O)(OC(C)C)OC(C)C)cc(OC)c1OC (stereo not drawn)
 : -6% | 1% | -2.1% | 0
CCC(=O)c1cn(CC(=O)Nc2cccc(C)c2)c2ccccc12
 : 1% | -4% | 3.4% | x
CCCCn1c(N)c(N2CCOCC2)c(=O)n(CC(=O)NC(C)c2ccccc2)c1=O (stereo not drawn)
 : -8% | -1% | 0.4% | 3
O=C(NC(=S)Nc1ccccc1N1CCCC1)c1ccc(-c2cccc([N+](=O)[O-])c2)o1
 : -11% | -9% | 1.2% | -2
Cc1cc(C)n(Cc2ccc(NC(=O)c3nn(C)cc3[N+](=O)[O-])cc2)n1
 : 0% | -8% | 12% | 4
Cc1ccc(-n2c([S-])c(C(=O)NC(C)c3ccccc3)[n+]3ccccc23)cc1 (stereo not drawn)
 : -5% | -1% | u | 1
Cc1ccc(C(=O)NC2(C(F)(F)F)NC(=O)N(c3ccc(Cl)cc3)C2=O)cc1 (stereo not drawn)
 : 2% | -2% | -0.7% | -3
CN1C(=O)C(=O)/C(=C(/O)c2ccccc2)C1c1ccc([N+](=O)[O-])cc1 (stereo not drawn)
 : -3% | -5% | -1.3% | x
COC(=O)c1ccc2nc(NC(=O)CSCC(=O)OCC(=O)c3ccccc3)sc2c1
 : 18% | -55% | u | 1
CC(C)(C)c1csc(NC(=O)C2COc3ccccc3O2)n1 (stereo not drawn)
 : 0% | -39% | -0.5% | x
COC(c1ccccc1)c1c(-c2ccccc2)nn(C)c1Cl (stereo not drawn)
 : 2% | 2% | 0.0% | -3
CCCCn1c(N(CCOC(C)=O)C(C)=O)nc2ccccc21
 : 9% | -4% | -2.7% | -6
CN(C)C(=O)c1ccc(N=Nc2c(O)c3ccccc3[nH]c2=O)cc1
 : 8% | x | -5.3% | x
Cc1cc(N2CCC(C)CC2)c(F)cc1[N+](=O)[O-]
 : 1% | 0% | 3.0% | -29
CC1CCC(CN2CCN=C2Nc2ccccc2)CC1 (stereo not drawn)
 : 1% | 1% | 0.9% | x
COc1ccccc1N1CCN(C(=O)CCNS(=O)(=O)c2cc(Br)cnc2N)CC1
 : -1% | 8% | 0.4% | x
O=C(O)c1ccccc1C=NNc1ccccn1
 : -1% | x | 1.7% | x
NC(=O)C1CCN(C(=O)CC2C(=O)NCCN2Cc2cccc(Oc3ccccc3)c2)CC1 (stereo not drawn)
 : -1% | 0% | -0.1% | x
Cc1ccc(C)c(OCC(=O)Nc2ccncc2)c1
 : 0% | 4% | 0.5% | x
Cc1cc2nnc(SC3CCOC3=O)n2c2ccccc12 (stereo not drawn)
 : 2% | -5% | 2.9% | -6
O=C(CN(C(=O)CCC(=O)Nc1nccs1)c1ccccc1F)NCc1ccc(F)cc1
 : 0% | 0% | 1.8% | x
C[C@@H]1CN([C@@H](C)CO)C(=O)c2cc(NC(=O)CCN3CCOCC3)ccc2O[C@@H]1CN(C)C(=O)Nc1ccccc1
 : -17% | x | -6.0% | x
COc1ccc(C(=O)Nn2c(SCC(=O)NC3CCCCC3)nc3ccccc3c2=O)cc1
 : 12% | 23% | -6.1% | 2
Cn1ccc(-c2cc(C(=O)O)c3ccccc3n2)n1
 : 18% | 0% | -0.6% | -3
N#Cc1c2ccc(OCC(N)=O)cc2n2ccccc12
 : u | 9% | u | 11
Nc1nc(-c2cccnc2)nn1C(=O)c1ccco1
 : x | -8% | x | -9
CN(C)Cc1cc(O)c(CN(C)C)cc1O
 : u | -1% | u | 3
COC(=O)c1ccc(N2C(=O)CC(N3CCN(C(=O)c4ccco4)CC3)C2=O)cc1 (stereo not drawn)
 : -9% | -6% | 2.0% | 2
COc1cc(/C=N/NC(=O)c2cc(-c3ccccc3Cl)nc3ccccc23)cc(OC)c1O
 : -7% | x | 4.2% | x
Cc1cccc(C)c1Nc1nnc(SC/C(O)=C(\C#N)c2nc3ccccc3[nH]2)s1
 : 15µM* | 0% | u | -2
Cc1cccc(OCC(=O)Nc2ccc3c(c2)nc(CCN2CCC(C)CC2)n3C)c1
 : 1% | -2% | -0.3% | x

The list continues:
The line under a structure holds: Rango release inh | miR-21 FLuc | Rango complex inh | GLA inh pH 4.5
COc1ccc(-n2cccc2C=O)cc1OC
 : -1% | -5% | 0.3% | 6
O=C(Cn1cnc2ccccc2c1=O)N1CCN(Cc2ccc3c(c2)OCO3)CC1
 : 9% | 5% | 0.5% | 0
Cn1c(=O)n(C)c2cc(S(=O)(=O)Nc3cc(Cl)ccc3O)ccc21
 : 11% | -1% | 0.5% | 3
O=Cc1coc2ccc3ccccc3c2c1=O
 : 0% | 3% | -2.4% | x
CCOC(=O)c1c(C)[nH]c(C(=O)CN2CCN(CC)CC2)c1C
 : 9% | 1% | 3.4% | -2
CCOc1ccc(NC2=C(Cl)C(=O)N(Cc3ccccc3)C2=O)cc1
 : 21% | -1% | 1.7% | 7
COc1ccc(N2CCN(c3nc4ccc(C)cn4c(=O)c3C=O)CC2)cc1
 : 0% | -15% | 8.0% | 3
COc1ccc(C(CC(=O)O)NS(=O)(=O)c2ccc3c(c2)NC(=O)CO3)cc1 (stereo not drawn)
 : 9% | 1% | 7.1% | x
Cc1cc(C)n2c(SCc3ccc(Cl)cc3Cl)nnc2n1
 : -8% | -35% | 0.9% | 4
CC12CCC(=O)N1C(C(=O)Nc1ccccc1N1CCCC1)CS2 (stereo not drawn)
 : 1% | x | 2.0% | x
CCOC(=O)C1(CCc2ccccc2)CCN(C(=O)C2CCCO2)CC1 (stereo not drawn)
 : 4% | -10% | 2.0% | 3
COc1ccc2[nH]c(=O)c(CN(Cc3cccnc3)C(=O)Nc3ccccc3)cc2c1
 : 9% | 17% | 3.2% | -5
CSc1cccc(NC(=O)CSc2ccc(C)cc2)c1
 : 13% | -24% | -2.8% | 4
Nc1nc(SCC(=O)c2ccc(Br)s2)n[nH]1
 : 3% | -1% | -2.6% | 7
CC(C)SCc1nc2ccccc2[nH]1
 : 0% | -9% | 0.9% | 25
COc1ccc(C(CNC(=O)c2cccc(S(=O)(=O)NCc3ccccc3)c2)N2CCOCC2)cc1 (stereo not drawn)
 : -8% | x | 2.4% | x
CN(C)C(=O)Nc1ccc(F)cc1F
 : 33% | -14% | -1.1% | 8
CC(=O)Nc1ccc2c(c1)nc(CN1CCCC1)n2C
 : 1% | 0% | -0.1% | 3
CC1SCC(NC(=O)c2cccc(Cl)c2)CS1 (stereo not drawn)
 : 12% | -21% | -1.7% | 3
Cc1csc(NC(=O)CSc2nc(=O)[nH]c3c2CCCC3)n1
 : 2% | -6% | 4.9% | x
Cc1ncc(S(=O)(=O)c2ccccc2)c(-c2ccc(Cl)cc2Cl)n1
 : -10% | -8% | 0.5% | -23
O=C(CN1CCC(n2nnc3cc(C(F)(F)F)ccc32)CC1)Nc1ccc2c(c1)OCCO2
 : -5% | -8% | -2.4% | -7
Cc1ccccc1NC(=O)C1CC(Cl)=CCC1C(=O)O (stereo not drawn)
 : 3% | -3% | -3.3% | 9
O=C(Cc1cccs1)N/N=C/C(Br)=C/c1ccccc1
 : -6% | -48% | -3.4% | 1
COc1ccc(NC(=O)CSc2ncccc2C(=O)OC(C)C)cc1OC
 : 13% | -1% | u | -3
CN([C@@H](Cc1ccc(OS(=O)(=O)c2cccc3cnccc23)cc1)C(=O)N1CCN(c2ccccc2)CC1)S(=O)(=O)c1cccc2cnccc12
 : 0% | 14% | -1.9% | -4&1
COc1ccccc1N1CCN(C(=O)c2ccc(Cl)c(S(=O)(=O)NCc3ccco3)c2)CC1
 : -9% | 25% | -5.9% | 10
Cn1c(SCC(=O)Nc2ccc(Cl)cn2)nnc1C1CC1
 : 14% | -1% | -0.2% | x
CCCCCCCCNC(CO)(CO)CO
 : 7% | 5% | -0.9% | -11
CCn1c(=O)c(NC(=O)c2ccccc2)c2n(c1=S)CCCCC2
 : 5% | -5% | 0.3% | 5
CN(C)CCNC(=O)c1ccc(Sc2ccc(Br)cc2)c([N+](=O)[O-])c1
 : 9% | -2% | 0.6% | -2[21.1 µM]
COc1ccc(-n2nnnc2CNC(=O)C2CC(=O)N(c3ccc(Cl)cc3)C2)cc1 (stereo not drawn)
 : 7% | x | 0.5% | x
O=C(CSc1ncnc2sccc12)N1CCCCC1
 : -8% | x | -0.2% | x
CC1=NC(=O)C(N=Nc2ccccc2C(=O)O)N1c1ccccc1 (stereo not drawn)
 : 20% | 2% | 4.4% | -5

From PubChem BioAssay
